miR-21 FLuc: qHTS Assay for Modulators of miRNAs and/orActivators of miR-21 | HeLa miR-21 FLuc reporter, luciferase, 48 h | Potency, µM (series often up to 38.3 µM), for inactives: top-dose reporter change, positive = more light | 340,000 tested, under 10 active | AID 2288, 2010; active = well fitted rising curve with a large enough effect; inconclusive = small, poorly fitted or top-dose-only effect; inactive = no such curve, though single readings can be large or run the other way;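 note: % of control where 0% means no effect; miR-21 action dims this reporter so a rising signal means less miR-21 action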
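HeLa miR-21-FLuc reporter line, endogenous miR-21; 2000 cells/well in DMEM/10% FBS; compound titration up to ~40uM final, 48 h, 37 degree Celsius; luciferase detection reagent, 15 min lysis, CCD luminescence.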
Active calls of the source: *; ? = inconclusive. The list is partial. The share of hits here may be higher or lower than overall.

miR-21 FLuc | Molecule
-5.4% | Cc1ccc(/C=C/c2onc(C)c2S(=O)(=O)N2CCC(C(=O)Nc3ccc(Br)c(C)c3)CC2)cc1
-0.2% | CCCN(CCC)CCNC(=O)Cn1cnc2sc(C)c(S(=O)(=O)N3CCN(c4ccccc4OC)CC3)c2c1=O
0.0% | CC(=O)c1ccc(NC(=O)c2nc3nc(C)cc(C(F)F)n3n2)cc1
2.4% | Cc1cccn2c(=O)c3cc(C(=O)Nc4ccc(Cl)c(Cl)c4)sc3nc12
-6.5% | O=C(CC1N=C2c3ccccc3N=C(SCc3cccc(F)c3)N2C1=O)NC1CCCCC1 (centres undefined)
21.1% | CCOc1ccc(NC(=O)c2ccc(F)c(S(=O)(=O)N(CC)Cc3ccccc3)c2)cc1
-12.7% | Cc1ccc(-c2nc(S(=O)(=O)c3ccc(C)cc3)c(SCC(=O)Nc3ccc(F)cc3)o2)cc1
24.3% | CC(C)c1ccc2occ(CC(=O)N(Cc3ccc(F)cc3)C3CCS(=O)(=O)C3)c2c1 (centres undefined)
1.8% | CCOc1ccc(NC(=O)Cn2c3ncccc3c(=O)n2-c2ccc(CC)cc2)cc1
? | COc1ccc(-c2nnc(SCC(=O)N(C)Cc3ccccc3)o2)cc1OC

3 compounds drawn at random from those above, as already listed:
miR-21 FLuc | Molecule
-0.2% | CCCN(CCC)CCNC(=O)Cn1cnc2sc(C)c(S(=O)(=O)N3CCN(c4ccccc4OC)CC3)c2c1=O
? | COc1ccc(-c2nnc(SCC(=O)N(C)Cc3ccccc3)o2)cc1OC
-6.5% | O=C(CC1N=C2c3ccccc3N=C(SCc3cccc(F)c3)N2C1=O)NC1CCCCC1 (centres undefined)

Following part
miR-21 FLuc | Molecule
-15.1% | COC(=O)c1ccc(Cl)cc1NC(=O)N1CCCn2nc(C)cc21
10.0% | O=C(c1ccc2c(c1)N(Cc1ccc(F)cc1)C(=O)c1ccccc1S2(=O)=O)N1CCCCC1
-10.0% | CCN(CC)c1ccc(-n2nc3cc(C)c(NC(=O)c4ccccc4F)cc3n2)cc1
-5.8% | Cc1nc2nc(NC(=O)C(C)(C)C)[nH]n2c(=O)c1Cc1ccccc1
27.1% | O=C(CSc1nc(-c2ccccc2)[nH]c1-c1ccccc1)Nc1ccc2c(c1)OCCO2
? | CCS(=O)(=O)c1oc(-c2ccc(F)cc2)nc1S(=O)(=O)c1ccccc1
-2.0% | CC1=C(C(=O)Nc2ccccc2)C(c2ccc(C(=O)O)cc2)n2ncnc2N1 (centres undefined)
-4.8% | Cc1ccc(CNC(=O)c2nnn(CC(=O)Nc3cc(C)ccc3C)c2N)cc1
3.7% | CCOC(=O)C1CCN(C(=O)Cn2nc(C)n3c(cc4sccc43)c2=O)CC1
-0.4% | COc1ccc(CCNC(=O)c2cc3c(s2)-c2ccccc2OC3)cc1OC
8.4% | Cc1cc(C)cc(NC(=O)c2cnc3sc(N4CCCC4)nn3c2=O)c1
-3.7% | O=C(CSc1nnc2scc(-c3ccc(Cl)cc3)n12)Nc1ccc(F)cc1
-5.0% | Cc1c(C(=O)NCCN(C)C)oc2c1-c1nn(Cc3ccccc3Cl)cc1CC2
-24.8% | O=C(Nc1c(C(=O)Nc2cccc(F)c2)oc2ccccc12)c1cc2ccccc2o1
2.2% | CCN1CCc2c(sc(NC(=O)c3ccc(S(=O)(=O)N4CCCC(C)C4)cc3)c2C(=O)OC)C1 (centres undefined)
-4.8% | COc1cc(NC(=O)c2cc(Cl)c(OC)c(Cl)c2)ccc1NC(=O)c1cc2ccccc2o1
3.0% | COc1ccc(-c2nc(SCC(=O)NCC3CCCO3)c(-c3ccc(Cl)cc3)[nH]2)cc1 (centres undefined)
-0.4% | Cc1ccc(NC(=O)Cn2c(=O)c(C(F)(F)F)nc3ccccc32)c(C)c1
-4.6% | CCN(CC)CCOC(=O)c1ccc(NC(=O)Cn2ncc3c2-c2cc(C)ccc2OC3)cc1
7.8% | CN(C)c1ccc(CNC(=O)c2cccn2-c2nnc(N3CCCCC3)s2)cc1
-34.2% | COc1ccc(NC(=O)CCc2c(C)nn(-c3ccc(N4CCCCC4)nn3)c2C)cc1Cl
-2.8% | Cc1ccc(/C=C/c2onc(C)c2S(=O)(=O)N2CCC(C(=O)Nc3cccc(C#N)c3)CC2)cc1
-2.4% | CCc1ccc(-n2c(=O)c3cccnc3n2CC(=O)Nc2ccccc2C(F)(F)F)cc1
5.4% | CC(=O)Nc1nonc1-c1nc2ccccc2n1Cc1ccccc1Br
0.5% | CCOc1ccc(NC(=O)C(=O)NCCc2ccccc2)cc1
-8.5% | Cc1cc(C)nc(-n2nc(C)c3c2NC(=O)CC3c2cc(F)ccc2F)n1 (centres undefined)
-7.5% | CC(C)CCNC(=O)CN1C(=O)c2cccnc2Oc2ccccc21
10.3% | CCS(=O)(=O)c1ncc(N(Cc2ccccc2)Cc2ccco2)c(C(=O)Nc2ccc(C)c(C)c2)n1
16.9% | CCOC(=O)C1=C(CN2CCN(c3ccc(Cl)cc3)CC2)NC(=O)NC1c1ccc(OC)cc1 (centres undefined)
6.4% | CC(NC(=O)CN1C(=O)c2cccnc2Oc2ccc(Cl)cc21)c1ccccc1 (centres undefined)
-25.6% | Cc1ccccc1CSc1nc2nc(C)c(Cc3ccccc3)c(C)n2n1
-1.7% | CCOc1ccc(CCNC(=O)CN2C(=O)C(CC)Oc3ccccc32)cc1OCC (centres undefined)
-0.5% | CCOc1cc(C(=O)Nc2ccc(S(=O)(=O)Nc3cc(OC)nc(OC)n3)cc2)cc(OCC)c1OCC
0.4% | CC1=C(c2ccc(C)c(C)c2)S(=O)(=O)N(Cc2ccc(C(=O)NCc3cccc(C)c3)cc2)C1=O
-4.1% | COc1cc(Cl)c(C)cc1NC(=O)CCc1nc2cccnc2n1-c1ccccc1
-4.3% | CC(C)CCNC(=O)c1ccc2c(c1)N(Cc1ccccc1F)C(=O)c1ccccc1S2=O (centres undefined)
19.4% | CCOC(=O)c1cccc(NC(=O)c2cc3c(Cl)nc4ccc(C)cc4c3s2)c1
4.5% | CCC(C)n1c(=O)c2sccc2n2c(CCCC(=O)Nc3ccc(F)cc3)nnc12 (centres undefined)
? | Cc1cccc(N2CCN(C(=O)c3ccc(CS(=O)c4cccc(Cl)c4)o3)CC2)c1C (centres undefined)
-1.6% | CCN(c1ccccc1)S(=O)(=O)c1ccc(NC(=O)c2cc(=O)c3cc(C)ccc3o2)cc1

Arranged by value in miR-21 FLuc (ascending): 6 of the compounds above
Molecule,miR-21 FLuc
CC(C)CCNC(=O)CN1C(=O)c2cccnc2Oc2ccccc21,-7.5%
Cc1nc2nc(NC(=O)C(C)(C)C)[nH]n2c(=O)c1Cc1ccccc1,-5.8%
O=C(CSc1nnc2scc(-c3ccc(Cl)cc3)n12)Nc1ccc(F)cc1,-3.7%
Cc1cc(C)cc(NC(=O)c2cnc3sc(N4CCCC4)nn3c2=O)c1,8.4%
O=C(c1ccc2c(c1)N(Cc1ccc(F)cc1)C(=O)c1ccccc1S2(=O)=O)N1CCCCC1,10.0%
CCOC(=O)C1=C(CN2CCN(c3ccc(Cl)cc3)CC2)NC(=O)NC1c1ccc(OC)cc1 (centres undefined),16.9%

New compounds follow.
miR-21 FLuc | Molecule
2.8% | CCc1nnc(NC(=O)CSc2nc3c([nH]c4ccccc43)c(=O)n2-c2ccc(C)cc2)s1
-1.7% | COc1ccccc1NC(=O)CCn1cnc2onc(-c3ccc(F)cc3)c2c1=O
2.4% | O=C(CN1C(=O)CCc2cc(S(=O)(=O)N3CCOCC3)ccc21)NCc1ccccc1
-36.5% | COc1ccc(CNc2nc(-c3ccco3)nn2C(=O)c2ccccc2C)cc1
-4.1% | COc1ccc(-c2n[nH]c3c2C(c2ccc(O)cc2)N(c2ccc(Br)cc2)C3=O)cc1 (centres undefined)
-1.7% | Oc1c(Br)cc(Br)cc1-c1nc2ccccc2s1
-0.8% | CCc1ccc(NC(=O)C2CCC(CNS(=O)(=O)c3ccc4c(c3)CC(C)N4C(C)=O)CC2)cc1 (centres undefined)
11.2% | Cc1cc(Cl)ccc1NC(=O)C1CCCN1S(=O)(=O)c1ccc2c(c1)CCCC(=O)N2 (centres undefined)
? | CCOC(=O)c1cccc(Nc2c3c(nc4ccccc24)CCC3)c1
17.8% | COc1ccccc1NC(=O)CCn1nc(-c2ccccc2)c2ccccc2c1=O
29.0% | CCOC(=O)CC(NC(=O)CCc1c(C)nc2c(-c3ccccc3)c(C)nn2c1C)c1ccc(C)cc1 (centres undefined)
? | CN(CC(=O)NCc1ccc(F)cc1)S(=O)(=O)c1ccc2[nH]c3c(c2c1)CCCC3
4.9% | Cc1ccc(C(=O)Nc2c(C(=O)NCc3ccc(Cl)cc3)sc3nc(C)cc(C)c23)cc1
13.6% | CC(C)c1ccc(NC(=O)C(Cc2ccccc2)n2cccc2)cc1 (centres undefined)
-11.5% | CCCn1c(CCC(=O)Nc2cc(Cl)c(OC)cc2OC)nc2cccnc21
? | CC(=O)c1cccc(NS(=O)(=O)c2ccc3[nH]c4c(c3c2)CCCCC4)c1
0.6% | COc1cccc(N2CCN(C(=O)CCc3c(C)nc4c(c3C)c(=O)n(C)c(=O)n4C)CC2)c1
-12.4% | CCCN(CCC)CCNC(=O)c1cc(-c2ccc(Br)s2)nc2ccccc12
-16.1% | COc1ccc(-n2nc(C(=O)N(C)c3cc(C)ccc3C)c3c4ccccc4n(C)c3c2=O)cc1Cl
-1.6% | CC(C)OCCCNC(=O)CCCn1c(SCC(=O)c2ccc(F)cc2)nc2c(sc3ccccc32)c1=O

Rewritten in markdown: part of the list above.
| SMILES | miR-21 FLuc |
| --- | --- |
| CCCN(CCC)CCNC(=O)c1cc(-c2ccc(Br)s2)nc2ccccc12 | -12.4% |
| COc1ccc(-n2nc(C(=O)N(C)c3cc(C)ccc3C)c3c4ccccc4n(C)c3c2=O)cc1Cl | -16.1% |
| CC(C)OCCCNC(=O)CCCn1c(SCC(=O)c2ccc(F)cc2)nc2c(sc3ccccc32)c1=O | -1.6% |

(continued)
miR-21 FLuc | Molecule
1.9% | Cc1ccc(C(=O)NCC(c2ccc3c(c2)OCO3)N2CCOCC2)cc1C (centres undefined)
5.2% | Cc1ccc(-n2nc(C)c3c(C(=O)Nc4ccccc4C(F)(F)F)cc(C)nc32)cc1
-8.0% | Fc1ccc(-c2cc(-c3nc(-c4cccc(Cl)c4)no3)[nH]n2)cc1
-9.3% | Cc1oc2ncn(CC(C)C)c(=O)c2c1C(=O)NCCCN(Cc1ccccc1)C(C)C
-36.8% | CC(C)c1ccc(C(=O)NNC(=O)C2C3CCC(C3)C2C(=O)O)cc1 (centres undefined)
-2.7% | COc1ccc(NC(=O)c2sc3nc4c(cc3c2N)CCCCCC4)cc1
-7.4% | COc1ccc(CCNS(=O)(=O)c2cc(-c3cc(C)no3)ccc2OC)cc1OC
-0.9% | COc1cc(OC)cc(C(=O)Nc2ccc3oc(-c4cccc5c(Br)cccc45)nc3c2)c1
-18.7% | Clc1ccc(CSc2ccc(-c3cccs3)nn2)cc1
1.3% | COC(=O)c1sccc1S(=O)(=O)N(CC(=O)Nc1ccccc1F)c1ccccc1
0.3% | COc1cc(C2C(C(=O)Nc3ccc(Cl)cc3)=C(C)Nc3nc(SC)nn32)cc(OC)c1OC (centres undefined)
1.3% | COc1ccc(S(=O)(=O)N(CC(=O)NC(C)c2ccccc2)c2ccc(C)cc2)cc1OC (centres undefined)
-3.3% | CCOc1ccccc1-c1nc(C(N)=O)c2c(n1)n(-c1ccc3c(c1)OCO3)c(=O)n2C
-1.3% | Cc1ccc(NC(=O)Cn2c(=O)n(-c3ccc(Cl)c(Cl)c3)c(=O)c3c(C)c(C)sc32)c(C)c1
-7.9% | Cc1ccc2occ(CC(=O)N(Cc3ccccc3Cl)C3CCS(=O)(=O)C3)c2c1 (centres undefined)
? | Cc1ccc(CNc2ccc(-c3nc(-c4ccncc4)no3)cc2[N+](=O)[O-])cc1
7.7% | CC(=O)c1cccc(NC(=O)CN(c2cc(C)cc(C)c2)S(=O)(=O)c2c(C)noc2C)c1
-0.6% | CCOC(=O)C1CCN(C(=O)Cn2nc(C)n3c(cc4c(OC)cccc43)c2=O)CC1
29.5% | Cc1ccc(NS(=O)(=O)c2cc(Br)cc3c2N(C(=O)C2CC2)CC3)cc1C
-0.7% | CCc1ccc(CNC(=O)c2cnc3sc(N4CCCC4)nn3c2=O)cc1
-2.4% | Cc1cccc(Cn2c(=O)n(Cc3ccc4c(c3)OCO4)c(=O)c3oc4ccccc4c32)c1
2.2% | COc1cccc(CNC(=O)C2CCCN(S(=O)(=O)c3cn(C)cn3)C2)c1 (centres undefined)
-9.9% | Cc1ccc2oc(=O)n(Cc3ccccc3Cl)c2c1
-6.2% | O=C(Nc1ccc(Br)cc1F)c1cc(S(=O)(=O)NC2CCCC2)ccc1F
-65.1% | O=c1oc2ccccc2cc1-c1nc(-c2cccs2)no1
-2.6% | CCOC(=O)c1ccc(-c2ccc(/C=C(\C#N)C(=O)Nc3ccc(OCC)cc3)o2)cc1
17.9% | COc1cccc(CNC(=O)Cn2c(=O)oc3cc(S(=O)(=O)N4CCCCCC4)ccc32)c1
6.1% | Cc1ccc(C(c2cccc(Br)c2)c2c(C)[nH]c3ccccc23)s1 (centres undefined)
-1.2% | CCCCCNC(=O)c1ccc2c(c1)ncn2-c1cccc(C)c1
11.0% | CCOc1ccc(N2CC(c3nc4ccccc4n3Cc3cccc(Cl)c3)CC2=O)cc1 (centres undefined)
7.6% | CCOc1ccc(CNC(=O)c2ccc3c(c2)c(C)c(C)n3Cc2ccccc2)cc1OC
11.6% | COc1ccccc1CNC(=O)CC(c1ccc(C)cc1)N1Cc2ccccc2C1=O (centres undefined)
-34.8% | C/C(CC(=O)Nc1ccc(F)cc1F)=N\NC(=O)C(=O)N1CCCCC1
1.9% | COc1ccc(C2CC(=O)c3cc(-c4nc(-c5cccc([N+](=O)[O-])c5)cs4)c(=O)n(-c4ccccc4N)c3C2)cc1 (centres undefined)
? | Cc1ccc(NS(=O)(=O)c2c(C(=O)N3CCC(C)CC3)c(C)n(C)c2C)cc1Cl
